From PubChem
Cruzain noTriton: qHTS Assay for Promiscuous and Specific Inhibitors of Cruzain (without detergent); Cruzipain (Trypanosoma cruzi), P25779; purified cruzain, Z-FR-AMC fluorescence, no detergent; Potency, µM, for inactives: max response, negative = inhibition, usual class: inhibitors; hit rate 2.3% among 200,000; active = well fitted curve in the direction sought with a large enough effect; inconclusive = small, poorly fitted or top-dose-only effect, or another doubt; inactive = no such curve, though single readings can be large; an effect the other way counts as inactive or inconclusive;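 note: plate controls were enzyme without inhibitor for no effect and buffer without enzyme for full effect; nearly all actives have a fitted effect of over 40% in size; top concentration of the series not given in the record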
Target sequence (P25779 123-467 limits assumed): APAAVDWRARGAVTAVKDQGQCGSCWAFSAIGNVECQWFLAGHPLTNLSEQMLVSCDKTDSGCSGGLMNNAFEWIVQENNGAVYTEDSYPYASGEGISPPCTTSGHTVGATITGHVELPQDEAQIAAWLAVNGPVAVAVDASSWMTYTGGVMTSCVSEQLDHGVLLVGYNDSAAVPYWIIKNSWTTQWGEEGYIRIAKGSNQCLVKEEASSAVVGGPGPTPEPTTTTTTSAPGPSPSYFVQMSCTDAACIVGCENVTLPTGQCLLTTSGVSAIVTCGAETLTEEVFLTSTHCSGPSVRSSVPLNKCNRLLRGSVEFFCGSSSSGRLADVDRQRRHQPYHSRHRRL
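Detergent-free condition (0.00005% Triton X-100) in acetate buffer pH 5.5 with DTT. 1.5 nM enzyme and compound were pre-mixed 15 min, then 2 uM Z-FR-AMC substrate added; reaction progress from fluorescence change between first and third reads (60 s).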
Marburg entry inh: qHTS for inhibitors of binding or entry into cells for Marburg Virus | Potency, µM (titrated, usually from 37.8 µM), inactives show top-dose activity change, negative = inhibition, most hits filed as inhibitors | Marburg virus pseudotyped entry inhibition, cell reporter; control for the full effect not named in the record; about a third of the inactives were read at about 46 µM | hit rate 1.8% among 300,000 | AID 540276, 2011; active = well fitted inhibition curve with a large enough effect; inconclusive = small, poorly fitted or top-dose-only effect, or effect the other way; inactive = flat fitted curve, though single readings scatter; tested in HEK293 cells; about a fifth of its hits are not listed in these tables; note: % is set by controls: 0 for no effect and ±100 for the full control effect; luciferase read-out
Cruzain inh Det: qHTS Assay for Promiscuous and Specific Inhibitors of Cruzain (with detergent); Cruzipain (Trypanosoma cruzi), P25779; purified cruzain, Z-FR-AMC fluorescence, 0.01% Triton; Potency, µM, without a hit: max response, negative = inhibition, actives largely listed as inhibitors; hit rate 0.43% among 200,000; active = well fitted curve in the direction sought with a large enough effect; inconclusive = small, poorly fitted or top-dose-only effect, or another doubt; inactive = no such curve, though single readings can be large; an effect the other way counts as inactive or inconclusive;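 note: plate controls were neutral wells for no effect and buffer without enzyme for full effect; nearly all actives have a fitted effect of over 40% in size; top concentration of the series not given in the record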
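Enzyme 1.5 nM, Z-FR-AMC 2 uM, NaOAc 100 mM pH 5.5, DTT 5 mM, Triton X-100 0.01%; 15 min RT compound preincubation; kinetic ex360/em450, 60 s delta.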
RE007 growth inh: qHTS Assay for Inhibitors of the HIV-1 protein Vpr. Potency, µM (titrated, usually from 92.2 µM), for the others: top-dose activity change, negative = less growth. hit rate 0.21% among 360,000. S. pombe RE007 Vpr strain, BacTiter-Glo ATP luminescence, 24 h; control for the full effect not named in the record; active = well fitted falling curve with a large enough effect; inconclusive = small, poorly fitted or top-dose-only effect; inactive = no such curve, though single readings can be large or run the other way;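 note: % is set by controls: 0 for no effect and ±100 for the full control effect; nearly all actives have a fitted effect of over 50% in size; the assay follows cell death caused by Vpr and the record does not say whether a fall means rescue or toxicity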
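Fission yeast strain RE007, carrying one chromosomally integrated HIV-1 vpr copy, was seeded at OD 0.01 in PMG+AL medium with 23 nL pinned compound. After 24 h at 30 °C and 99% humidity, viability was read by BacTiter-Glo luminescence.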
LASV entry inh: qHTS for Inhibitors of binding or entry into cells for Lassa Virus. Lassa virus pseudotype entry inhibition, cell reporter; control for the full effect not named in the record. Potency, µM (highest dose often 37.9 µM), inactives show at the highest dose activity change, negative = inhibition, most hits filed as inhibitors. hit rate 1.2% among 300,000. AID 540256, 2011; active means well fitted inhibition curve with a large enough effect; inconclusive means small, poorly fitted or top-dose-only effect, or effect the other way; inactive means flat fitted curve, though single readings scatter; tested in HEK293 cells; note: % is set by controls: 0 for no effect and ±100 for the full control effect; nearly all actives have a fitted effect of over 50% in size; luciferase read-out
NS1 inh: qHTS Assay for Inhibitors of Influenza NS1 Protein Function. S. cerevisiae slowed by influenza A NS1, growth recovery by OD600. Potency, µM (titrated, usually from 46.1 µM), for the others: at the highest dose activity, positive = more growth. hit rate 0.4% among 270,000; note: actives are rising curves; nearly all actives have a fitted effect of over 50% in size
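OD600 was taken as the measure of yeast growth restored by compound in an NS1-expressing S. cerevisiae strain. Cells had been washed out of glucose medium and diluted 1:100 into galactose -URA medium, pH 6.0.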
SARS PLP yeast: qHTS of Yeast-based Assay for SARS-CoV PLP; S. cerevisiae expressing SARS-CoV PLpro, growth rescue; control for the full effect not named in the record; Potency, µM (series often up to 32.9 µM), for inactives: top-dose activity, positive = growth rescue; hit rate 0.19% among 330,000; note: 0% is about no effect; nearly all actives have a fitted effect of over 55% in size; growth read by luminescence after 48 h
StopGo reporter: High Throughput Screening for Foot and Mouth Disease Virus Antivirals. hit rate 1.2% among 410,000. human cells with a luciferase reporter of 2A StopGo recoding; control for the full effect not named in the record. Potency, µM (doses to about 57.9 µM), for the others: at the top dose signal change, negative = less light. AID 1159524, 2015; active = well fitted falling curve with a large enough effect; inconclusive = small, poorly fitted or top-dose-only effect; inactive = no such curve, though single readings can be large or run the other way; tested in HEK293T cells; note: % is set by controls: 0 for no effect and ±100 for the full control effect; nearly all actives have a fitted effect of over 45% in size; luciferase light after 4 h
* marks the source's active call; other numbers are inactive results; ? = inconclusive; / = no result given; [ ] = remark or other dose. Unless noted, calls come from the whole dose curve; as a rule, active means well fitted rising curve with a large enough effect; inconclusive means small, poorly fitted or top-dose-only effect; inactive means no such curve, though single readings can be large or run the other way. Potency is the fitted concentration of half-maximal effect.

molecule | SARS PLP yeast | NS1 inh | Cruzain inh Det | StopGo reporter | RE007 growth inh | Cruzain noTriton | Marburg entry inh | LASV entry inh
Cc1ccc(N(C(=O)Cn2nnc(-c3ccccc3F)n2)C(C(=O)NC2CCCC2)c2ccncc2)cc1 (stereo not given) | -2% | -8% | / | -12% | -8% | / | -9%[46.1 µM] | 11%
S=C(NCc1cccs1)Nc1cccc2ccccc12 | 0% | -6% | / | 55%[activator] | 0% | / | -3%[14.2 µM] | 10%
Cc1c(C(=O)NCCSc2ccc(Cl)cc2)cccc1[N+](=O)[O-] | -44% | -22% | -7.8% | -11% | 1% | -3% | -17% | -1%
Cn1cnnc1SCC(=O)N1N=C(c2ccc(Cl)cc2)CC1c1ccco1 (stereo not given) | -1% | 0% | / | -22% | 11% | / | / | /
Cc1cc(C)c(NC(=S)N2CCN(c3ccc([N+](=O)[O-])cn3)CC2)cc1C | -2% | 1% | / | 0% | 10% | / | / | /
C#CCOCCOCCOCCNc1nc(N2CCN(C(=O)[C@H](CCC(=O)O)n3cc(C(N)Cc4ccc(O)cc4)nn3)CC2)nc(N2CCN(C(=O)[C@H](CCC(=O)O)n3cc(C(N)[C@H](C)CC)nn3)CC2)n1 (stereo not given in full) | 0% | 1% | / | -22% | -3% | / | / | /
C=Cc1ccc(Cn2c(C)c(CNCCc3ccc(OCC)cc3)c(C(=O)O)c2C)cc1 | / | / | -5.2% | ? | / | 17% | -23%[46.1 µM] | -5%[46.1 µM]
CC1(C)CC(N2CCCC2)=CC(=[N+]2CCCCC2)C1 | 1% | / | / | ? | -4% | / | ? | ?
Cc1ccc(C2=NOC3(CC(=O)N(c4ccccc4)C3=O)C2)cc1 (stereo not given) | 0% | -3% | / | -14% | 0% | / | / | /
O=C(COC(=O)CN1C(=O)C(=O)c2ccccc21)OCN1C(=O)c2ccccc2C1=O | 18% | 11% | -2.8% | -23% | 1% | -4% | -16% | 18%

3 structures already listed, ordered by number of heavy atoms, smallest number first:
molecule | SARS PLP yeast | NS1 inh | Cruzain inh Det | StopGo reporter | RE007 growth inh | Cruzain noTriton | Marburg entry inh | LASV entry inh
CC1(C)CC(N2CCCC2)=CC(=[N+]2CCCCC2)C1 | 1% | / | / | ? | -4% | / | ? | ?
Cn1cnnc1SCC(=O)N1N=C(c2ccc(Cl)cc2)CC1c1ccco1 (stereo not given) | -1% | 0% | / | -22% | 11% | / | / | /
Cc1ccc(N(C(=O)Cn2nnc(-c3ccccc3F)n2)C(C(=O)NC2CCCC2)c2ccncc2)cc1 (stereo not given) | -2% | -8% | / | -12% | -8% | / | -9%[46.1 µM] | 11%

Look-ups from the entries so far.
CC1(C)CC(N2CCCC2)=CC(=[N+]2CCCCC2)C1 – SARS PLP yeast = 1%
Cc1ccc(C2=NOC3(CC(=O)N(c4ccccc4)C3=O)C2)cc1 (stereo not given) – StopGo reporter = -14%
Cn1cnnc1SCC(=O)N1N=C(c2ccc(Cl)cc2)CC1c1ccco1 (stereo not given) – NS1 inh = 0%
Cc1cc(C)c(NC(=S)N2CCN(c3ccc([N+](=O)[O-])cn3)CC2)cc1C – NS1 inh = 1%

(continued)
molecule | SARS PLP yeast | NS1 inh | Cruzain inh Det | StopGo reporter | RE007 growth inh | Cruzain noTriton | Marburg entry inh | LASV entry inh
O=C(OCC(=O)N1CCN(C(=O)c2ccco2)CC1)c1cccc(S(=O)(=O)N2CCc3ccccc32)c1 | 1% | / | / | ? | 7% | / | -20%[46.1 µM] | -11%
CCCn1c(=O)[nH]c(=O)c2c1nc(-c1cc([N+](=O)[O-])ccc1Cl)n2CCOC | 2% | 4% | / | -5% | 2% | / | ? | 13%
CCOc1ccccc1NS(=O)(=O)c1ccc(Br)s1 | / | -3% | 0.1% | 1% | -8% | -2% | -6% | ?
O=C(NCCCn1ccnc1)c1ccccc1NS(=O)(=O)c1ccc(F)c(F)c1 | 6% | 17% | 0.5% | 11% | -13% | -2% | 3% | 18%
CCOC(=O)c1ccc(S(=O)(=O)N2CCN(C3CC(=O)N(c4ccccc4C(F)(F)F)C3=O)CC2)cc1 (stereo not given) | 0% | / | / | -13% | -12% | / | 13% | -9%
Cc1ccc(-c2nc3c4ccccc4n(CC(=O)N4CCN(c5ccccc5F)CC4)c(=O)n3n2)cc1 | / | / | 1.6% | 0% | / | -5% | / | -3%[46.1 µM]
O=C(Nn1cnc2ccccc2c1=O)c1ccc([N+](=O)[O-])cc1Cl | 1% | 0% | / | 25% | -2% | / | -5%[46.1 µM] | 1%
CCCCCC(=O)Nc1cccc(C2=NOC3(C2)C[C@H](C(N)=O)N(C(=O)COc2ccc(Cl)cc2)C3)c1 (stereo not given in full) | 3% | 0% | / | ? | 4% | / | 1% | /
Cc1nn(CC(=O)NNC(=O)c2ccccc2F)c([N+](=O)[O-])c1Br | -2% | 2% | / | -14% | -2% | / | 13%[46.1 µM] | -8%[46.1 µM]
COc1ccc(NC(=O)CN2C(=O)NC(C)(c3ccc4c(c3)OCO4)C2=O)cc1S(N)(=O)=O (stereo not given) | -2% | / | / | -6% | 4% | / | 0% | -18%
C=CCNC(=O)C1CC2Cn3c(nc4cc5ccccc5cc43)C2N1C (stereo not given) | 19% | ? | / | 37%[activator] | 4% | / | / | /
O=C(NC1CCCCC1)c1ccc(-n2cnnn2)cc1 | -2% | -1% | / | 0% | -5% | / | / | /
COCCOc1cc(NC(=O)CS(=O)(=O)CC(=O)N(C)C)c(Cl)cc1Cl | 0% | -2% | / | -8% | -6% | / | 11%[46.1 µM] | 5%[46.1 µM]
Cc1ccc(S(=O)(=O)N2CCOc3ccccc32)c(C)c1NS(C)(=O)=O | 7% | 0% | / | -13% | 11% | / | / | /
Cc1ccc(OCCN2CCN(c3ncnc4sc(C)c(C)c34)CC2)cc1 | -4% | -9% | 2.7% | ? | -16% | 5% | ? | ?
Cc1ccc(C)c(NC(=S)NCCc2ccc(F)cc2)c1 | -7% | -27% | -6.1% | -2% | 22% | -13% | / | /
Cc1ccc(-n2cnc3ncnc(-c4ccccc4)c32)cc1 | 1% | -7% | / | -18% | 8% | / | -18%[46.1 µM] | -3%[46.1 µM]
Cc1cccc(NC(=S)NCC(c2cccnc2)N2CCOCC2)c1C (stereo not given) | -36% | -2% | -3.3% | -9% | -11% | 10% | ? | -3%
CCN(CC)CC(=O)Nc1cccc(S(=O)(=O)N2CCCC2)c1 | 0% | 7% | / | -12% | 7% | / | -3%[46.1 µM] | -16%
Cc1ccc(N2C(=O)C(NC(=O)c3ccccc3)(C(F)(F)F)C3=C2CC(C)(C)CC3=O)cc1 (stereo not given) | 8% | 6% | -5.7% | 1% | 15% | 15% | 4% | -1%
COc1ccc(CCNC(=O)c2c(C)cc(=O)oc2C)cc1OC | 9% | 4% | -4.6% | 8% | 9% | -11% | 11% | 0%
O=C(/C=C/c1ccccc1Cl)Nc1cccnc1 | -11% | -89% | / | 40%[activator] | -11% | / | / | /
O=C(Cn1cc2c(n1)CCCC2)NCCCN1CCN(Cc2ccccc2)CC1 | -3% | 1% | 1.3% | -18% | -4% | 8% | 2% | /
CCOC(=O)CCc1n[nH]c(=O)[nH]c1=O | 2% | 4% | 2.6% | -2% | 14% | 9% | 11% | 5%
CCc1ccccc1OCCSc1nnc(-c2cc(OC)c(OC)c(OC)c2)o1 | / | / | -3.0% | -18% | / | 25% | -8%[46.1 µM] | 14%[46.1 µM]
CC(C)Cn1c(N)c(C(=O)COC(=O)C2Cc3ccccc3CN2S(C)(=O)=O)c(=O)n(C)c1=O (stereo not given) | -5% | / | / | -15% | -1% | / | ? | -19%
CC(=O)COc1ccc2c(C)c(C)c(=O)oc2c1 | 4% | -64% | 0.7% | 29% | -14% | 12% | ? | 7%
CS(=O)(=O)n1nc(NCc2cccs2)nc1NCc1cccs1 | 0% | 1% | / | -3% | -21% | / | -1% | 6%
COC(=O)C1=CN(CCOC23CC4CC(CC(C4)C2)C3)C=C(C(=O)OC)C1c1ccsc1 | -6% | / | / | -22% | 9% | / | ? | ?
COc1ccccc1C(=O)N(Cc1sccc1C)C1CCS(=O)(=O)C1 (stereo not given) | -10% | 3.2µM* | / | -16% | 10% | / | / | /
CCCCCC(=O)Nc1ccc(NC(=O)c2cc3ccccc3o2)c(OC)c1 | / | / | 0.7% | -20% | / | ? | / | 25%[46.1 µM]
O=C(CCNS(=O)(=O)c1ccccc1C(F)(F)F)NC1CCCCCC1 | -4% | / | / | -16% | -2% | / | -19% | -27%
COc1ccccc1-c1coc2c(CN3C(C)CCCC3C)c(O)ccc2c1=O (stereo not given) | -8% | 21% | / | -7% | 2% | / | / | /
O=C(CN1CCOCC1)Nc1nc2cc([N+](=O)[O-])ccc2s1 | 23% | 1% | -11% | 21% | -11% | -17% | ? | ?
CC(Sc1nnc(C2CC2)n1C1CC1)C(=O)NC1(C#N)CCCCC1 (stereo not given) | -7% | / | / | -8% | 9% | / | 20% | 2%
O=C(CCN1C(=O)c2cccc3cccc(c23)C1=O)NC1CCS(=O)(=O)C1 (stereo not given) | 2% | -1% | / | 13% | -6% | / | 2%[46.1 µM] | -1%
Cc1nc2cc(Nc3ccncc3)ccc2s1 | 0% | / | / | -20% | -16% | / | -13%[46.1 µM] | -4%
COc1ccc(-c2cc(C(F)(F)F)nc(SCC(=O)NCCc3ccccc3)n2)cc1OC | / | / | -7.9% | -4% | / | ? | -16%[46.1 µM] | -1%[46.1 µM]
COC(=O)/C=C1/S/C(=N/NC(=O)c2ccc(Cl)cc2Cl)NC1=O | 5% | 3% | / | 1% | 8% | / | -16%[46.1 µM] | 1%
CCOc1nc(NC2CCCC2)nc(N2CCC(C)CC2)n1 | 5% | -1% | / | -26% | -9% | / | ? | -19%
COc1cccc(NC(=O)Nc2ccc3nc(C)c(C)nc3c2)c1 | 3% | 0% | / | -4% | 1% | / | 1%[46.1 µM] | -9%[46.1 µM]
